Screening data: PubChem, National Center for Advancing Translational Sciences (NCATS)
AmpC inh no det: Promiscuous and Specific Inhibitors of AmpC Beta-Lactamase (assay without detergent). actives 1.8% (n = 71,000). AmpC nitrocefin hydrolysis, absorbance 480 nm, no detergent; potencies from a single point are estimates. Potency, µM (highest dose often 28.7 µM), for inactives: at the top dose activity change, negative = inhibition. P00811. AID 585, 2007; active = falling curve, for most hits resting on a single point; inconclusive = weak or doubtful change; inactive = flat or rising curve; note: % of control where 0% means no effect; about half of the hits show no inhibition at the top dose; a quarter of the inactives give rising signals
Target sequence (P00811 whole entry, looked up): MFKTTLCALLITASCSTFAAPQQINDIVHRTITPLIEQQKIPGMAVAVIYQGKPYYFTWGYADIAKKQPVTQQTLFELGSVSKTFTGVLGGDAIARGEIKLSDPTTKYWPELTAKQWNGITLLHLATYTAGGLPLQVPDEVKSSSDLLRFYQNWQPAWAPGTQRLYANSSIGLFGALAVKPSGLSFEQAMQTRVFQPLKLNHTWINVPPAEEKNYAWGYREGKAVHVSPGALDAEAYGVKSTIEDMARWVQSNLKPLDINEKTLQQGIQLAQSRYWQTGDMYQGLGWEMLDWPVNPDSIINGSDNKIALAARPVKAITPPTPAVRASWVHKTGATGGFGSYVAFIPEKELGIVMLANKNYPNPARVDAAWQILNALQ
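AmpC in 20 mM phosphate buffer pH 7.0 was preincubated 15 min at room temperature with compounds. Nitrocefin (800 uM stock) was then added and hydrolysis followed at 480 nm every 20 s for 4 min.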
An asterisk follows results filed as active; ? = inconclusive; & = joins results of further samples; [ ] = another dose, or the depositor's remark. Potency is the fitted concentration of half-maximal effect.

molecule	AmpC inh no det
Cc1[nH]c2ccc(F)cc2c(=O)c1SC(F)(F)C(F)F	-7.5%
CCCn1c(=O)c(C(=O)NCc2cccnc2)c(O)c2ccccc21	8.1%
COc1ccc(C(=O)OCCN2CCOCC2)cc1OC	11.4%
Cc1nc(C)n(C(C)CC(=O)O)n1 (stereo unspecified)	-7.4%
CCC(=O)Nn1c(C)nnc1C	-11.4%
Oc1ccc(N=Cc2ccc(O)c(O)c2)cc1	12.6µM*
COc1cccc(NC(=O)n2nc(N)cc2-c2ccc(Cl)cc2)c1	3.98µM*[single pt active]
Cc1ccc2c(c1)N(CC(=O)N1CCCCCC1)C(=O)CO2	-2.2%
CC1CCC2(CC1)NC(=O)N(Cc1nc(-c3ccccc3)no1)C2=O (stereo unspecified)	7.4%
CCOc1ccc(OCC)c(NC(=O)CN2CCN(c3cccc(C)c3)CC2)c1	66.9%
O=[N+]([O-])c1ccc2c(N=Nc3ccc4ccccc4c3O)c(O)cc(S(=O)(=O)O)c2c1	-25.5%[5.75 µM]
CC(C)(C)Nc1nc(C(N)=O)nc(N2CCOCC2)n1	8.0%
CC(C)(c1cc(Br)c(OCC(Br)CBr)c(Br)c1)c1cc(Br)c(OCC(Br)CBr)c(Br)c1 (stereo unspecified)	-12.8%
COc1cccc(N(C(=O)Cn2nnc3ccccc32)C(C(=O)NCc2ccco2)c2cccnc2)c1 (stereo unspecified)	81.3%
CCOC(=O)c1cccc([P+](=O)O)c1	-3.7%
CCN(CC)S(=O)(=O)c1ccc2c(c1)c(=O)c(C(=O)NCCOC)cn2C	32.3%
Cc1coc(C)c1C(=O)CC1(O)C(=O)N(CCc2ccccc2)c2ccccc21 (stereo unspecified)	27.8%
CCNc1nc(NC(C)C)nc(NS(=O)(=O)c2ccc(Cl)cc2)n1	-15.6%
c1ccc2c(c1)nnn2Cc1nnc2sc(-c3ccc4c(c3)OCCO4)nn12	-1.6%
Cn1c(=O)c2cn(Cc3ccc(Cl)cc3)cc2n(C)c1=O	12.8%
COc1ccc(CNC(=O)CSc2ncnc3nc[nH]c23)cc1	1.4%
COCCn1c(COc2ccc(Cl)cc2)nnc1SCC(N)=O	8.8%
COc1cc(C(=O)Oc2c(CN3CCOCC3)cc(Cl)c3cccnc23)cc(OC)c1OC	174.0%
COc1ccccc1NC(=O)CNC(=O)c1ccc(F)cc1	2.0%
COCCn1c(=O)c(-c2ccccc2)nc2cnc(N3CCNCC3)nc21	43.1%
O=C(Nc1ccccc1C(=O)N1CCOCC1)c1ccncc1	1.1%
CCOC(=O)C1=C(N)N(c2ccc(N3CCCCC3)cc2)C(=O)C1	7.8%
Cc1ccc(C)c(-n2c(SCC(N)=O)nnc2-c2ccccn2)c1	0.4%
COc1ccc(C)cc1NC(=O)C1CCCN1S(=O)(=O)c1ccc2c(c1)CCC(=O)N2 (stereo unspecified)	73.2%
c1ccc(CN2C3=NCCCN3c3ccccc32)cc1	-12.1%
COc1cccc(C2=NOC(C(=O)NCc3ccccc3)C2)c1 (stereo unspecified)	13.9%
Cc1cccc(NC(=O)C2CCN(S(=O)(=O)c3cccs3)CC2)n1	-6.6%
Cn1c(SCc2ccc(F)cc2)nnc1-c1cccs1	13.2%
O=C1c2ccccc2C(=O)N1CCCc1nc2ccccc2c(=O)n1-c1cccnc1	54.9%
CCCC[C@]1(C2CCCC2)Cc2cc(OCC(=O)O)c(Cl)c(Cl)c2C1=O	2.8%
Cc1ccc(-n2nnnc2SCC(=O)c2cc(C)n(-c3cc(C)on3)c2C)c(C)c1	0.3%
COc1ccccc1/C=C1/C(=N/O)C2CCN1CC2	-6.8%
Cn1c(=O)cc(OCCCC(=O)Nc2ccc3c(c2)OCCO3)c2ccccc21	31.7%
COc1ccc(-c2nnn(CC(=O)Nc3sc4c(c3C#N)CCCC4)n2)cc1	-19.1%
COc1ccc(Cl)cc1N(CC(=O)Nc1ccc2c(c1)OCCO2)S(C)(=O)=O	29.3%
CN(c1ccc(O)cc1)c1nc(-c2ccccc2)cs1	-20.0%
O=C(NCc1ccccn1)C1CCN(S(=O)(=O)N2CCCCC2)CC1	8.2%
CCOc1ccc(-c2nc(=S)[nH][nH]2)cc1	-10.4%
CC(NC(=O)NCC1CCCO1)(C(F)(F)F)C(F)(F)F (stereo unspecified)	2.4%
Cc1nnsc1NC(=O)OCC(C)C	19.5%
N[C@H](C(=O)O)c1ccc(C(=O)O)cc1	-3.4%
N#Cc1c(N)c(C(=O)c2ccc(Br)cc2)n2c1CCC2	-6.1%
Cc1ccc2nc(S(=O)(=O)O)[nH]c2c1	-3.4%
COC(=O)c1sc(NC(=O)c2ccc(OC)cc2OC)nc1C	16.1%
COC(=O)c1cn(-c2ccccc2)nc1C(=O)OC	-6.7%
CCCCNC(=O)c1c[nH]c2ccc(S(=O)(=O)Nc3ccc(OCC)cc3)cc2c1=O	?
Cc1ccc2c(CNCc3ccco3)cc(=O)oc2c1	-7.4%
COC(=O)COc1cccc(-n2cnnn2)c1	-12.1%
C=CCN1CCN(C(CC(C)C)c2nnnn2CCOC)CC1 (stereo unspecified)	-9.6%
COc1cccc(C(=O)n2cnnc2N)c1OC	7.9%
CC(=O)Nc1c(Cl)n(C(C)=O)c2ccccc12	-1.8%
Cc1nc(-c2ccc(NS(C)(=O)=O)cc2)cs1	-3.7%
O=C(CSc1nn(-c2ccc(Cl)cc2)c(=S)s1)N1CCN(C(=O)c2ccco2)CC1	111.3%
Cn1c(Cn2c(=O)sc3ccccc32)nnc1SCC(=O)Nc1cccc(Cl)c1	8.2%
Cc1coc(NC(=O)CSc2nc(-c3ccncc3)cc(C(F)(F)F)c2C#N)n1	11.7%

Additional records follow.
molecule	AmpC inh no det
COc1cc(NC(=O)C23CC4CC(C2)CC(n2nnc(C)n2)(C4)C3)c(OC)cc1Cl	61.1%
Cc1noc(C)c1-c1cncnc1Nc1ccccc1	7.9%
CN(C(=O)c1cccc(C#N)c1)c1nnc(-c2ccncc2)s1	1.1%
O=[N+]([O-])c1cc(Cl)c(Cl)c(Cl)c1	-5.9%
COC(=O)Cc1c(C)nc2nc(-c3ccco3)[nH]n2c1=O	0.4%
Cn1c(Cn2c(=O)sc3ccccc32)nnc1SCC(=O)Nc1cccc(F)c1	3.98µM*[single pt active]
CCOC(=O)NC(=O)CN1C(=O)NC(C)(c2ccccc2)C1=O (stereo unspecified)	-16.2%
O=C(Nc1ccc(F)cc1F)N1CCN(C/C=C/c2ccccc2)CC1	3.98µM*[single pt active]
CCN(CC)C[C@@H](O)c1ccc2ccc3ccccc3c2c1	11.7%[5.75 µM]
Cc1cc(OCc2nnc(SCC(=O)OC3CCCCC3)o2)ccc1Cl	30.0%
Brc1cc(Br)c2ncnc(N3CCCCC3)c2c1	59.9%
O=C(NC1C2CC3CC(C2)CC1C3)C1CC1 (stereo unspecified)	-7.7%
CCOc1ccc(NC(=O)C(C)O)c(NS(=O)(=O)c2ccc(CCNC(C)=O)cc2)c1 (stereo unspecified)	13.9%
Cc1ccc(N2C(=O)C(Cl)=C(Nc3c(C)n(C)n(-c4ccccc4)c3=O)C2=O)cc1	19.6%
Brc1ccc([C@H]2CN3CCSC3=N2)cc1	-6.9%
O=c1cc(CN2CCN(c3ccccc3)CC2)c2c(ccc3ccccc32)o1	-2.0%
CCn1cc(C(=O)Nc2ccc(C(=O)N3CCCC3)cc2)c(=O)c2ccc(C)nc21	7.1%
CC(=O)NC1C(=O)N=C(SCc2ccccc2)NC1=O (stereo unspecified)	-3.3%
O=c1c2ccccc2nc(-c2ccco2)n1-c1cccnc1	-3.3%
O=C(Nc1nccs1)c1ccc(NC(=O)c2ccco2)cc1	-16.9%
COc1ccccc1-c1nc(C(F)(F)F)c(OC)o1	-2.2%
O=C(c1ccco1)N1CCN(S(=O)(=O)Cc2ccc(Cl)cc2)CC1	25.4%
N#CCCn1nnc2ccccc21	-9.1%
Cc1nonc1NC(=O)c1ccccc1Br	-5.7%

The listing continues:
Structure | AmpC inh no det
COc1cc2cc(CN(Cc3cccnc3)C(=O)NCc3ccccc3)c(=O)[nH]c2cc1OC | 66.4%
CCN(CCNC(=O)Cn1c(=O)sc2ccccc21)c1ccccc1 | 5.1%
CC1Cc2ccccc2N1C(=O)CSc1nnc2c(n1)[nH]c1ccccc12 (stereo unspecified) | 7.6%
COc1ccc(NC(=O)c2c(C)oc3c2CCCC3)cc1 | -0.7%
Cc1cc2c(C)cc(=O)oc2c2c1NCCC2 | -11.1%
CC1(C)NC(C)(C)C(O)(C(N)=O)C1=O (stereo unspecified) | -13.9%
Clc1ccc(-n2nnnc2Sc2ncnc3sccc23)cc1 | -8.0%
COc1ccc(CCNC(=O)c2ccc(CN3CCOCC3)cc2)cc1 | 5.5%
CC(=O)N1CC=CC1(CC(C)C)C(=O)NCc1ccccn1 (stereo unspecified) | 1.8%
CCCNC(=O)NC(=O)CSc1nc2ccccc2n1CC(C)C | 49.7%
CC(=O)N1CCC2(CC1)CN(C(=O)Nc1cccc(C#N)c1)C2 | 8.2%
Cl/C=C\Cl | -5.1%
CCOc1ccccc1CN1C(=O)c2ccccc2C1C(=O)NCC1CCCO1 (stereo unspecified) | 2.2%
Cc1ncoc1C(=O)Nc1nccs1 | 1.6%
COc1ncc2nc(CCc3ccccc3)c(=O)n(CCC#N)c2n1 | 27.6%
CCCn1c(-c2ccc(F)cc2)nc2c(NCC3CCCN3CC)nc(C)nc21 (stereo unspecified) | 21.8%
CCOC(=O)c1[nH]c(C)c(C(=O)NCCCN2CCOCC2)c1C | -15.4%
CCOC(=O)c1nnn(CC(=O)Nc2cccc(Cl)c2C)c1C(=O)OCC | 25.0%
Cc1ccc(S(=O)(=O)NCCCN2CCOCC2)cc1C | -11.2%
CSc1ccccc1NC(=O)CCn1c(=O)sc2ccccc21 | -13.1%
O=S(=O)(c1ccccc1)c1nc(-c2ccco2)oc1NCCCN1CCOCC1 | 35.3%
Cc1ccc(-c2cc(C(F)F)n3ncc(C(=O)N4CCN(c5ccccn5)CC4)c3n2)cc1 | 75.1%
COc1ccc(S(=O)(=O)NC(CC(=O)NCC2CCCO2)c2ccco2)cc1 (stereo unspecified) | -1.9%
CCOc1ccc(Cn2nnc(C(=O)Nc3ccc(OC)cc3OC)c2N)cc1 | 15.0%
O=C(Cn1cnc2c(nnn2-c2ccccc2)c1=O)N1CCOCC1 | 9.4%
Cc1cc(C)cc(C(=O)n2cnnc2N)c1 | 10.5%
COc1cccc(-c2nc(CS(=O)CC(=O)NC3CC3)c(C)o2)c1 (stereo unspecified) | 26.1%
COC(=O)C1=C(CSCc2ccco2)NC(=O)NC1c1cc(C)ccc1C (stereo unspecified) | -5.4%
Cc1ccc(C2CC(c3ccco3)n3ncnc3N2)cc1 (stereo unspecified) | 21.5%
CCN(CCO)c1ccc(-n2c(N)c(C(=O)OC)c3nc4ccccc4nc32)cc1 | 92.0%
Oc1ccccc1/C=N/c1c(-c2ccco2)nc2ccccn12 | 70.1%
O=C(c1cnn2c(C(F)(F)F)cc(-c3ccc4c(c3)OCO4)nc12)N1CCCC1 | 53.5%
Cc1noc(/C=C/N(C)C)c1S(=O)(=O)NC1CCCCC1 | 0.1%
Cc1cc(=O)n2nc(N3CCCC3C(=O)NCCCN3CCCCC3)sc2n1 (stereo unspecified) | -11.5%
CCN1CCN(C(=O)c2cc3cc4cc(OC)ccc4nc3s2)CC1 | 75.1%
CC(C)Cc1nnc(NC(=O)CSc2nc(=O)cc(N)n2-c2ccccc2)s1 | 48.4%
COc1ccc(N2CC(C(=O)NCCC3=CCCCC3)CC2=O)cc1 (stereo unspecified) | 65.4%
Cc1cc(C(=O)CSc2nnc(-c3ccccc3F)o2)c(C)n1Cc1cccs1 | -7.1%
COC(=O)[C@@]1(Cc2ccc(OC)cc2)[C@H]2c3cc(C(=O)N4CCCC4)n(Cc4ccsc4Br)c3C[C@H]2CN1C(=O)c1ccccc1 | 99.6%
CN(C1CCCCC1)S(=O)(=O)c1ccc(Cl)c(C(=O)O)c1 | -2.8%
CC(C)(C)n1ncc2c(=O)n(CC(=O)NC3CCCCC3)cnc21 | -0.3%
CC(=O)c1sc2ccccc2c1OC(=O)c1ccco1 | 13.6%
Cc1cc(NC(=O)CCCS(=O)(=O)c2nc(-c3cccs3)cc(C(F)(F)F)n2)no1 | 0.7%
NCCS(=O)(=O)O | -6.3%&21.6%&4.8%

Not all compounds are listed; count on the stated rates, not on these rows.
